VACV Venus inh = vaccinia inhibition (Venus reporter); 330,000 tested, 0.46% active; AID 720580; Vaccinia virus Venus reporter expression, fluorescence; Potency, µM (titrated, usually from 36.5 µM), inactives show at the top dose activity change, negative = inhibition, usual class: inhibitors; active means well fitted inhibition curve with a large enough effect; inconclusive means small, poorly fitted or top-dose-only effect; inactive means no such curve, though single readings can be large or run the other way; tested in A549 cells; note: nearly all actives have a fitted effect of over 30% in size; inactives centre near -10
VACV mCherry inh = inhibitors of vaccinia virus infection (mCherry reporter signal) | Vaccinia virus mCherry reporter infection, fluorescence; about a quarter of the inactives have no number | Potency, µM (top dose mostly 36.5 µM), without a hit: top-dose activity change, negative = inhibition, hits mostly inhibitors | 310,000 tested, 0.63% active; active = well fitted inhibition curve with a large enough effect; inconclusive = small, poorly fitted or top-dose-only effect; inactive = no such curve, though single readings can be large or run the other way; tested in A549 cells; note: nearly all actives have a fitted effect of over 35% in size; inactives centre near -10
The depositor's hits bear a star; i = inactive; u = inconclusive; x = no result given; [ ] = dose if it differs, or a comment. % is set by controls: 0 for no effect and ±100 for the full control effect; potency is the fitted concentration of half-maximal effect.

SMILES | VACV Venus inh | VACV mCherry inh
CCCc1ccc(S(=O)(=O)N(C)S(=O)(=O)c2ccc(F)cc2)cc1 | -22% | i
O=C(N/N=C/c1cc2ccccc2[nH]1)c1ccccc1Cl | -11% | -18%
Cc1ccc2nc(N3CCN(Cc4ccc(F)cc4)C3=O)c(C)cc2c1 | -18% | -8%
C=CCCC(=O)Nc1nc(C)c(-c2csc(Nc3ccccc3OC)n2)s1 | u | u
COc1cc(/C=C2\SC(=Nc3ccc(N4CCOCC4)cc3)N(C)C2=O)ccc1OC(C)C(=O)O (configuration not stated) | -3% | -19%
COc1ccc(NC(=O)CO/N=C2/CCCc3nonc32)c(OC)c1 | -14% | -14%
Cc1ccccc1Nc1nc(N)nc(CSc2nnnn2-c2ccccc2)n1 | -15% | u
COC(=O)c1ccccc1OP(=O)(c1cccc([N+](=O)[O-])c1)c1cccc([N+](=O)[O-])c1 | -5% | -13%
CC(C)(C)c1ccc(C(=O)c2c[nH]c(C(=O)NCCc3ccccn3)c2)cc1 | -2% | -15%
NS(=O)(=O)c1ccc(NC(=O)CN2CCN(S(=O)(=O)c3ccc(F)cc3)CC2)cc1 | 7%[7.34 µM] | i[7.34 µM]
CC1(C(=O)NS(=O)(=O)c2ccccc2Cl)CCN1C(=O)CC1CC1 (configuration not stated) | 8% | 36%[activator]
CCN(CC)S(=O)(=O)c1ccc(NC(=O)CSc2nnc3c(n2)[nH]c2ccccc23)cc1 | u | -13%
CC(C)(C)c1ccc(C(=O)N2CCC(C(=O)N3CCCCC3)CC2)cc1 | -26% | u
COc1ccccc1C(=O)OCC(=O)NC1CCCC1 | -8% | i
CCOc1ccc(C(=O)NCC(=O)NCC(c2ccco2)N2CCCCC2)cc1 (configuration not stated) | -11% | i
Cc1nc(NCc2c(C)nn(C)c2Cl)sc1-c1ccn(CC2COc3ccccc3O2)n1 (configuration not stated) | -13% | -24%
COc1ccc(C(=O)NC=C2C(=O)OC(C)(C)OC2=O)cc1 | 0% | -3%
COc1ccc(NS(=O)(=O)c2c(C)n(C)c(=O)n(C)c2=O)cc1 | -5% | i
O=C(O)C1=CC[C@@H](c2ccc(Cl)cc2)N(S(=O)(=O)c2ccc(Cl)cc2)[C@H]1c1ccc(Br)cc1 | -28% | -28%
Cc1nonc1CN(C)C(=O)CC1C(=O)NCCN1Cc1cccc(C(F)(F)F)c1 (configuration not stated) | -10% | i
CC(C)NC(=S)NN=C1CCCCCCCCCCC1 | 4% | -5%
CCOc1ccc(-c2noc(CCC(=O)NC3CCCC3)n2)cc1OC | -7% | -17%
COc1ccc(S(=O)(=O)N2CCC(C(=O)NCCC3=CCCCC3)CC2)cc1C | -18% | -26%
CC(C)C(=O)N1CCC1(C)C(=O)Nc1ccc(-n2cncn2)cc1 (configuration not stated) | 1% | -9%
Cc1cccc(N2CCN(C3(c4ccccc4)C(=O)c4ccccc4C3=O)CC2)c1C | 5% | 1%

One compound at a time, from the list above. Screens in order: VACV Venus inh, VACV mCherry inh
Record of CCN(CC)S(=O)(=O)c1ccc(NC(=O)CSc2nnc3c(n2)[nH]c2ccccc23)cc1 = u, -13%
Record of COc1ccc(NS(=O)(=O)c2c(C)n(C)c(=O)n(C)c2=O)cc1 = -5%, i
Record of Cc1ccccc1Nc1nc(N)nc(CSc2nnnn2-c2ccccc2)n1 = -15%, u
Record of O=C(N/N=C/c1cc2ccccc2[nH]1)c1ccccc1Cl = -11%, -18%
Record of COc1ccc(C(=O)NC=C2C(=O)OC(C)(C)OC2=O)cc1 = 0%, -3%

Back to the main list, starting 5 compounds before the break.
SMILES | VACV Venus inh | VACV mCherry inh
CC(C)NC(=S)NN=C1CCCCCCCCCCC1 | 4% | -5%
CCOc1ccc(-c2noc(CCC(=O)NC3CCCC3)n2)cc1OC | -7% | -17%
COc1ccc(S(=O)(=O)N2CCC(C(=O)NCCC3=CCCCC3)CC2)cc1C | -18% | -26%
CC(C)C(=O)N1CCC1(C)C(=O)Nc1ccc(-n2cncn2)cc1 (configuration not stated) | 1% | -9%
Cc1cccc(N2CCN(C3(c4ccccc4)C(=O)c4ccccc4C3=O)CC2)c1C | 5% | 1%
Nc1ncnc2c1ncn2[C@@H]1O[C@H](C(=O)NS(=O)(=O)c2cccs2)[C@@H](O)[C@H]1O | -6% | i
CC(C)C(=O)N1CCN(c2ccccc2NC(=O)c2ccc([N+](=O)[O-])o2)CC1 | u | 11µM*
CCOc1ccc(C2N(c3ccc(F)cc3)C(=O)C3CCCN32)cc1 (configuration not stated) | -4% | 2%
Cc1sc2ncnc(N3CCC(C(=O)Nc4ccc(Br)cc4Br)CC3)c2c1C | -9% | -8%
CCCCn1cnc2cc(C)c(C)cc21 | -12% | -15%
Cc1cc(-c2ccc(C(C)C)c(S(=O)(=O)Nc3ccccn3)c2)on1 | -27%[7.34 µM] | -13%[7.34 µM]
O=C(/C=C/c1ccco1)OCC1CCCN2CCCCC12 (configuration not stated) | -19% | u
O=C(NCc1ccccn1)[C@@H]1CCCN1C(=O)[C@@H]1CCCN1C(=O)c1cccc(Cl)c1 | 9% | 16%
COc1cccc(-c2cccc(-c3nc(C(=O)NCc4ccc(Oc5ccccc5)cc4)cc4c3[C@H](CCO)N(S(=O)C(C)(C)C)C4)c2)c1 (some centres not stated) | 0% | i
Cn1c(=O)cc(OCC(=O)NCc2cccs2)c2ccccc21 | -10% | -8%
N#CCC(=O)NC(=O)NCC1CC1 | 1% | -7%
O=C(Nc1ccc(Cl)cc1)Nc1nnc(CSc2ccc(Cl)cc2)s1 | -9% | i
C[C@@H]1CN([C@@H](C)CO)C(=O)CCCn2nncc2CO[C@@H]1CN(C)C(=O)Oc1ccc2ccccc2c1 | -15% | i
Cc1ccccc1CSc1nc(-c2ccccc2)cc(=O)[nH]1 | -3% | -10%
COc1ccc2c(c1)c1ncn(Cc3ccco3)c(=O)c1n2C | -30% | u
Brc1ccc(/C=N/c2nc3ccccc3n2CCN2CCOCC2)cc1 | -11% | i
O=C(CSc1nc2ccccc2nc1Cc1ccc(Cl)cc1)N1CCN(c2ccccc2)CC1 | -10% | -10%
O=C(c1ccc(F)cc1)N(C(=O)c1ccc(F)cc1)c1ncccn1 | -21% | -1%
O=C(C1CC1)N1CCc2cc(S(=O)(=O)NC3CCN(Cc4ccccc4)CC3)ccc21 | -18% | -2%
COc1cccc(-c2ncc3ccccc3c2COC(=O)c2ccc(C(C)(C)C)cc2)c1 | -6% | -4%
Cc1cc(C(=O)CSCCCn2c(=O)[nH]c3ccccc32)c(C)n1C | 1% | -11%
COc1ccccc1CNC(=O)c1ccc2nc(C)c(N(C)Cc3ccc(NC(C)=O)cc3)n2c1 | -2% | 20%
CC(O)CNCc1cccc2ccccc12 (configuration not stated) | -14% | -21%
O=C(Nc1ccc([N+](=O)[O-])cc1)N1CCc2ccccc2C1 | -18% | -3%
COc1ccc(-c2c(-c3cc(OC)cc(OC)c3)n(C)c3ccc(-c4cc(F)cc(OC)c4)cc23)cc1 | -6% | -9%
SMILES | VACV Venus inh | VACV mCherry inh
COc1ccc(C)cc1NC(=O)COC(=O)C1CCN(C(=O)c2ccc(Cl)cc2)CC1 | -8% | -1%
O=S(=O)(Nc1nc2ccccc2[nH]1)c1ccc2ccccc2c1 | -7% | 0%
COc1cc(OC)cc(C(=O)NCC(=O)N2CCCCC2)c1 | -3% | -7%
COc1ccccc1NC(=O)CC1C(=O)NCCN1C(=O)Nc1ccc(Cl)c(Cl)c1 (configuration not stated) | u | -27%
O=C(NNC1=Nc2cccc3cccc1c23)c1ccc(Br)cc1 | 10% | u
CCOC(CNC(=O)Cn1nc(Cc2ccncc2)c2ccccc2c1=O)OCC | -8% | -1%
CC1CCCC(O)(C(C(=O)O)c2ccccc2)C1 (configuration not stated) | 5% | i
Fc1ccc(-c2ccc(CNCCSc3nnnn3-c3ccccc3)o2)cc1Cl | -7% | 1%
COc1ccc(-c2nc3n(n2)C(c2cccc(C)c2)C(C(N)=O)=C(C)N3)cc1OC (configuration not stated) | 0% | -2%
COC(=O)C1=C(C)N(C(C)C)C(=O)C1(NC(=O)c1ccc(C(C)(C)C)cc1)C(F)(F)F (configuration not stated) | 1% | -2%
CC1CCC(NC(=O)c2ccc3c(c2)N(Cc2cccc(Cl)c2)C(=O)c2ccccc2S3=O)CC1 (configuration not stated) | -8% | -2%
CSc1ccc(CCNC(=O)Cn2ncc3c(=O)oc4ccccc4c32)cc1 | -2% | -12%
COC(=O)c1ccc(C(=O)OC)c(NC(=O)c2ccc(-c3ccccc3)s2)c1 | -2% | -9%
COc1cc(NC(=S)NCc2ccco2)cc(OC)c1 | -5% | -21%
Cc1c(C(=O)Nc2ccccc2)c2cc(O)ccc2n1Cc1ccccc1 | -6% | i
COC(=O)CCC(=O)Nc1cccc(Cl)c1 | -10% | x
CCCn1c(SCC(=O)NCc2ccco2)nnc1C(C)C | -25% | -3%
Cc1ccc(NC(=O)Nc2ccc(F)cc2F)c(OC(F)F)c1 | -14% | i
CC(=O)NC12CC3CC(C1)CC(C(=O)OCC(=O)Nc1ncc(Cl)c(C)c1Cl)(C3)C2 | -17% | -20%
COc1ccc(CNc2cc(C)ccn2)cc1 | -19% | -8%
O=S(=O)(/N=C(/c1ccc(F)cc1)N1CCCCC1)c1ccc(Cl)cc1 | -7% | i
Cc1nc2ccccn2c(=O)c1NC(=O)c1ccc2c(c1)OCO2 | -9% | -12%
CCC(CC)C(=O)N(C)c1c(C)nc2c(OCc3ccc(OC(F)F)cc3)cccn12 | -3% | 4%
CCn1c(/C=N/Nc2ccc(C(=O)O)cc2)nc2ccccc21 | -12% | -8%
O=C(CNC(=O)C1CCCCC1)OCC(=O)c1ccc(-c2ccccc2)cc1 | -2% | -13%

Some of these compounds in order of formula weight, high to low:
SMILES | VACV Venus inh | VACV mCherry inh
COC(=O)C1=C(C)N(C(C)C)C(=O)C1(NC(=O)c1ccc(C(C)(C)C)cc1)C(F)(F)F (configuration not stated) | 1% | -2%
O=S(=O)(/N=C(/c1ccc(F)cc1)N1CCCCC1)c1ccc(Cl)cc1 | -7% | i
Cc1c(C(=O)Nc2ccccc2)c2cc(O)ccc2n1Cc1ccccc1 | -6% | i

Exported field by field: part of the list above
canonical_smiles: Cc1c(C(=O)Nc2ccccc2)c2cc(O)ccc2n1Cc1ccccc1
  VACV Venus inh: -6%; VACV mCherry inh: i
canonical_smiles: CCn1c(/C=N/Nc2ccc(C(=O)O)cc2)nc2ccccc21
  VACV Venus inh: -12%; VACV mCherry inh: -8%

Next part
SMILES | VACV Venus inh | VACV mCherry inh
O=C(NCCS(=O)(=O)N1CCN(c2ccccc2F)CC1)c1cccs1 | -13% | -14%
O=S(=O)(Nc1cccc(-c2cn3c(n2)SCC3)c1)c1ccccc1F | -3% | -10%
O=C(NC1CC1)c1ccc(C2SCC(=O)N2Cc2ccccc2)cc1 (configuration not stated) | -11% | -12%
CCN(CC)S(=O)(=O)c1cccc(NC(=O)/C=C/c2ccc([N+](=O)[O-])cc2)c1 | 0% | -10%
Cc1ccc(C(=O)NCCc2nnc3ccc(SCC(=O)Nc4ccccc4C)nn23)cc1 | -12% | -8%
CCCNC(=O)CSc1nccn1Cc1ccco1 | -14% | -2%
Cc1nn(CC2CC2)c(=O)n1N(C)c1ncc(C(F)(F)F)cc1Cl | 0% | i
O=c1c2ccccc2oc2cc(OCc3ccc(F)cc3)cc(O)c12 | -4% | -4%
CC1=C(c2ccc(C(C)C)cc2)S(=O)(=O)NC1=NCc1ccc(Cl)cc1 | -5% | -6%
Cc1nn2c(COc3ccc(NC(=O)c4ccccc4Cl)cc3)nnc2c2ccccc12 | -30% | i
O=C1NC(=O)C(Cc2cccc(Oc3ccccc3)c2)S1 (configuration not stated) | -2% | -17%
CSc1cccc(NC(=O)CN(c2ccc(C)cc2C)S(C)(=O)=O)c1 | -24% | -10%
Cc1ccc(/C=N/Nc2cn[nH]c(=O)n2)o1 | -12% | -9%

Compound activity as filed in PubChem BioAssay.
